Screening data from PubChem.
Vaccinia inh – blocks a specific stage of Vaccinia orthopoxvirus infection, primary screen, cell-based, single point. actives 0.01% (n = 89,000). Vaccinia-infected cells, mCherry/Venus stage reporter fluorescence; hits give low values; some inactives read as strong as hits. AID 1053133, 2014. activity change (mCherry), % (concentration not given with the values);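 active = mCherry past -33% and 40 or more points under the early reporter, replicates agreeing; inconclusive = past -33% without that gap or agreement; tested in A549 cells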;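 also: scaled between vehicle wells and reference inhibitor wells; 23 nL library stock went into each well; one replicate is shown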
Vaccinia inh Venus – second read-out of Vaccinia inh, no call of its own (marks repeat the call); activity change (Venus), %; measured here: Venus reporter, other viral stage;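 negative = less Venus signal; first of two replicates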
An asterisk follows results filed as active; ? = inconclusive; nt = no result given. This is a subset; the hit share may differ from the screen's.

smiles	Vaccinia inh	Vaccinia inh Venus
COc1ccc(NC(=O)N(C)C[C@H]2Oc3ccc(NC(=O)C4CCCCC4)cc3CC(=O)N([C@@H](C)CO)C[C@H]2C)cc1	0	3
C[C@@H]1CN([C@@H](C)CO)C(=O)c2cc(NS(=O)(=O)c3ccccc3)ccc2O[C@@H](C)CCCCO[C@H]1CN(C)S(=O)(=O)c1ccc(Cl)cc1	-18	-13
CCNC(=O)C[C@H]1CC[C@H]2[C@@H](COc3ccc(NC(=O)Nc4ccccc4OC)cc3C(=O)N2C)O1	-2	-2
COc1ccc(S(=O)(=O)N(C)C[C@@H]2Oc3cc(C#CC4CC4)ccc3S(=O)(=O)N([C@@H](C)CO)C[C@H]2C)cc1	?	nt
COc1ccc(NC(=O)Nc2ccc3c(c2)C(=O)N([C@H](C)CO)C[C@@H](C)[C@H](CN(C)C(=O)NC2CCCCC2)O3)cc1	9	0
Cc1ccc(S(=O)(=O)N(C)C[C@H]2Oc3c(NC(=O)C4CCOCC4)cccc3C(=O)N([C@H](C)CO)C[C@@H]2C)cc1	11	5
C/C=C/c1ccc([C@H]2[C@H](CO)N(C(C)=O)[C@H]2CN(CC)C(=O)CN(C)C)cc1	11	9
C[C@H](CO)N1C[C@H](C)[C@H](CN(C)C(=O)Nc2cccc3ccccc23)Oc2ncc(C#Cc3ccccc3)cc2C1=O	?	nt
COc1cccc(NC(=O)C[C@H]2CC[C@@H]3[C@@H](COc4ccc(NC(=O)C5CCC5)cc4C(=O)N3C)O2)c1	-1	-11
CN1[C@@H]2c3ccc(-c4ccc(F)cc4)c(=O)n3C[C@@H]2[C@@H](CO)[C@@H]1C(=O)NCC1CC1	9	1
C[C@@H]1CCCCO[C@@H](CN(C)C(=O)CCC(F)(F)F)[C@@H](C)CN([C@H](C)CO)C(=O)c2cc(NS(=O)(=O)c3ccc(Cl)cc3)ccc2O1	-14	-18
COCC#Cc1cnc2c(c1)C(=O)N([C@@H](C)CO)C[C@@H](C)[C@@H](CN(C)C(=O)Cc1ccncc1)O2	6	11
C/C=C/c1ccc([C@H]2[C@H]3CN(C(=O)Nc4ccc(OC)cc4)CCCCN3[C@H]2CO)cc1	-14	-16
COc1ccc2c3c([nH]c2c1)[C@H](CO)N(C(=O)c1ccccc1)CC31CCN(C(=O)NC(C)C)CC1	11	6
Cc1noc(C)c1S(=O)(=O)Nc1ccc2c(c1)CC(=O)N([C@@H](C)CO)C[C@H](C)[C@H](CN(C)CC1CC1)O2	6	10
CCC(=O)N(CC(C)C)C[C@@H]1[C@@H](c2ccccc2)[C@H](CO)N1C(=O)C1CCC1	6	9
CO[C@@H]1CN(C)C(=O)c2ccc(NS(=O)(=O)CC(F)(F)F)cc2OC[C@@H](C)N(C(=O)c2ccc3c(c2)OCO3)C[C@H]1C	19	9
COc1cccc(CNC(=O)C[C@H]2CC[C@H]3[C@H](COc4ccc(NS(=O)(=O)c5ccccc5F)cc4C(=O)N3C)O2)c1	9	15
CO[C@@H]1CN(C)C(=O)c2ccc(NS(=O)(=O)c3ccc(C)cc3)cc2OC[C@@H](C)N(C)C[C@@H]1C	11	4
COCC#Cc1ccc2c(c1)O[C@H](CN(C)Cc1ccccc1F)[C@H](C)CN([C@@H](C)CO)S2(=O)=O	-23	-20
C[C@@H]1CN([C@H](C)CO)C(=O)c2cc(N(C)C)ccc2O[C@@H](C)CCCCO[C@H]1CN(C)S(C)(=O)=O	2	13
COc1ccc2c3c(n(C)c2c1)[C@H](CO)N(C)CC31CN(S(=O)(=O)c2cccc(F)c2)C1	-11	-15
CC(=O)N(C)C[C@@H]1Oc2cc(C#Cc3cccnc3)ccc2S(=O)(=O)N([C@H](C)CO)C[C@H]1C	22	0
Cc1noc(C)c1NC(=O)N1C[C@@H](O)COC[C@H]2O[C@H](CC(=O)NCC3CCCCC3)CC[C@@H]21	1	1
C[C@@H]1CN([C@@H](C)CO)C(=O)c2cc(NC(=O)Nc3ccccc3)ccc2O[C@H]1CN(C)Cc1ccc2c(c1)OCO2	-29	-21
N#C[C@H]1[C@@H](c2ccc(/C=C/c3ccccc3)cc2)[C@@H](CO)N1C(=O)Cc1ccccn1	6	2
CC(C)NC(=O)N(C)C[C@@H]1Oc2ccc(NS(=O)(=O)c3cn(C)cn3)cc2C(=O)N([C@H](C)CO)C[C@H]1C	10	16
C[C@H](CO)N1C[C@H](C)[C@H](CN(C)Cc2ccc(C(=O)O)cc2)Oc2ccc(NS(=O)(=O)c3cn(C)cn3)cc2CC1=O	16	8
O=C(N[C@@H]1CC[C@@H](CCNS(=O)(=O)c2ccc(F)cc2)O[C@H]1CO)C1CC1	-5	-5
CN(C)CCCNC(=O)C[C@H]1CC[C@H](NS(=O)(=O)c2ccc(F)cc2)[C@@H](CO)O1	5	7
O=C1N[C@@H](c2ccccc2)COCn2nncc2CC[C@@H]1Cc1ccccc1	9	2
O=C(C[C@H]1CC[C@@H]2[C@H](COC[C@H](O)CN2C(=O)c2ccncc2)O1)NCc1cc(F)cc(F)c1	16	50
CC(C)NC(=O)N(C)C[C@H]1Oc2ccc(NC(=O)Nc3cccc4ccccc34)cc2C(=O)N([C@@H](C)CO)C[C@H]1C	3	5
O=C(N[C@@H]1CC[C@H](CCNS(=O)(=O)Cc2ccccc2)O[C@@H]1CO)c1ccc2c(c1)OCO2	-8	-6
Cc1ccc(S(=O)(=O)N2C[C@H](O)COC[C@@H]3O[C@@H](CC(=O)NCC4CCCCC4)CC[C@H]32)cc1	-6	-10
CO[C@@H]1CN(C)C(=O)c2cc(NS(C)(=O)=O)ccc2OC[C@H](C)NC[C@@H]1C	-5	7
O=S(=O)(Cc1ccccc1)NCC[C@@H]1CC[C@H](NS(=O)(=O)c2ccc(F)cc2)[C@@H](CO)O1	-9	-7
CN(C)CCCNC(=O)[C@H]1[C@H](CO)[C@H]2Cn3c(ccc(-c4ccccc4)c3=O)[C@@H]1N2C	-4	3
CCC(=O)N[C@H]1C=C[C@H](CC(=O)NCc2cc(F)cc(F)c2)O[C@H]1CO	8	6
O=C(NC1CCCC1)N1CC(=O)N2[C@H](CO)[C@H](c3ccc(-c4ccncc4)cc3)[C@@H]2C1	-1	3
O=C(C[C@@H]1CC[C@@H](NC(=O)c2ccncc2)[C@@H](CO)O1)Nc1ccc(-c2ccccc2)cc1	-22	-18
O=C(NCC[C@@H]1CC[C@H](NC(=O)C2CCC2)[C@@H](CO)O1)c1cc(Cl)cc(Cl)c1	0	6
CO[C@H]1CN(C)C(=O)c2ccc(NC(=O)c3nc4ccccc4s3)cc2OC[C@@H](C)NC[C@@H]1C	?	nt
C[C@H](CO)N1C[C@H](C)[C@@H](CN(C)CC2CCOCC2)Oc2ncc(C#Cc3ccccn3)cc2C1=O	16	17
O=C(c1cccc(F)c1)N1CC[C@@H]2[C@H](CO)Nc3ccc(C#Cc4ccccc4)cc3[C@@H]21	-11	-4
CCNC(=O)C[C@H]1CC[C@H]2[C@H](COc3ccc(NC(=O)Cc4ccccc4)cc3C(=O)N2C)O1	19	13
COc1ccc(NC(=O)N(C)C[C@H]2OCCCC[C@H](C)Oc3ccc(NC(=O)CCCN(C)C)cc3C(=O)N([C@H](C)CO)C[C@@H]2C)cc1	9	2
C[C@H](O)C#Cc1ccc([C@@H]2[C@@H](CO)N3CCCCN(S(=O)(=O)Cc4ccccc4)C[C@@H]23)cc1	1	9
Cc1noc(C)c1S(=O)(=O)Nc1ccc2c(c1)C(=O)N([C@H](C)CO)C[C@H](C)[C@@H](CN(C)Cc1ccc(Oc3ccccc3)cc1)O2	-12	-6
COC(=O)[C@H]1[C@H](CO)[C@H]2Cn3c(cccc3=O)[C@H]2N1C(=O)C1CCCCC1	11	11

Following part.
SMILES,Vaccinia inh,Vaccinia inh Venus
Cc1noc(C)c1S(=O)(=O)Nc1ccc2c(c1)CC(=O)N([C@H](C)CO)C[C@H](C)[C@@H](CN(C)S(=O)(=O)c1ccc(F)cc1)O2,-1,-2
CCCNC(=O)[C@H]1[C@H](CO)[C@H]2Cn3c(ccc(-c4ccccc4)c3=O)[C@@H]1N2C(=O)C1CC1,21,6
CCCNC(=O)N1C[C@@H]2[C@H](c3ccccc31)[C@H](CO)N2Cc1cccc(OC)c1,-1,-2
C[C@H]1CN([C@@H](C)CO)C(=O)c2cc(C#CC3(O)CCCC3)cnc2O[C@H]1CN(C)Cc1cncnc1,14,14
CCCC#Cc1ccc2c(c1)O[C@@H](CN(C)Cc1cccnc1)[C@@H](C)CN([C@H](C)CO)S2(=O)=O,-10,-7
CCC(=O)Nc1ccc2c(c1)C(=O)N(C)C[C@H](OC)[C@@H](C)CN(C(=O)c1ccc(F)cc1)[C@H](C)CO2,-3,2
C[C@@H]1CCCCO[C@H](CN(C)Cc2ccc3c(c2)OCO3)[C@@H](C)CN([C@H](C)CO)C(=O)c2cc(NS(=O)(=O)c3ccc(Cl)cc3)ccc2O1,-32,-31
C[C@@H]1CN([C@H](C)CO)C(=O)c2cccc(NC(=O)Nc3cccc4ccccc34)c2O[C@@H]1CN(C)C,-8,2
COc1ccc(S(=O)(=O)N[C@H]2CC[C@@H](CCn3cc(C(C)C)nn3)O[C@@H]2CO)cc1,-11,-7
O=C(NC1CCCC1)N1CCCCN2[C@H](C1)[C@H](c1ccc(/C=C/c3ccccc3)cc1)[C@@H]2CO,?,nt
COc1cccc(CNC(=O)C[C@H]2CC[C@@H](NS(=O)(=O)c3ccccc3OC)[C@@H](CO)O2)c1,-6,-10
COc1ccc(CN(C)C[C@@H]2OCCCC[C@H](C)Oc3ccc(NC(=O)Nc4ccc(C(F)(F)F)cc4)cc3C(=O)N([C@@H](C)CO)C[C@H]2C)cc1,?,nt
COc1ccc(CN(C)C[C@@H]2Oc3ccc(NS(C)(=O)=O)cc3CC(=O)N([C@@H](C)CO)C[C@H]2C)cc1,4,11
Cc1noc(C)c1NC(=O)N(C)C[C@H]1Oc2c(NS(=O)(=O)c3ccc(Cl)cc3)cccc2C(=O)N([C@@H](C)CO)C[C@@H]1C,8,9
CO[C@@H]1CN(C)C(=O)c2ccc(NC(=O)c3ccc(-c4ccccc4)cc3)cc2OC[C@@H](C)NC[C@@H]1C,?,nt
C[C@@H]1CN([C@H](C)CO)C(=O)c2cccc(NS(C)(=O)=O)c2O[C@@H]1CN(C)S(C)(=O)=O,27,11
N#C[C@H]1[C@@H](c2ccccc2C2=CCCCC2)[C@@H](CO)N1S(=O)(=O)c1ccccc1,15,12
COc1ccc(S(=O)(=O)N(C)C[C@@H]2Oc3cc(C#CC4CCCC4)ccc3S(=O)(=O)N([C@H](C)CO)C[C@@H]2C)cc1,-23,-27
Cc1ccc(S(=O)(=O)N[C@H]2CC[C@H](CC(=O)NCc3ccc(Cl)c(Cl)c3)O[C@@H]2CO)cc1,-23,-14
COc1ccccc1NC(=O)N1[C@H](CO)[C@@H](c2ccccc2)[C@@H]1C#N,14,6
CCCC#Cc1ccc2c(c1)O[C@@H](CN(C)C(=O)COC)[C@@H](C)CN([C@@H](C)CO)S2(=O)=O,-1,-14
C/C=C/c1ccc2c(c1)O[C@H](CN(C)S(=O)(=O)c1ccccc1OC)[C@H](C)CN([C@H](C)CO)S2(=O)=O,-8,-11
C[C@@H]1CN([C@@H](C)CO)C(=O)c2cccc(NC(=O)c3nc4ccccc4s3)c2O[C@H]1CN(C)C(=O)Nc1ccc2c(c1)OCO2,37,15
Cc1noc(C)c1S(=O)(=O)Nc1ccc2c(c1)C(=O)N([C@@H](C)CO)C[C@@H](C)[C@H](CN(C)Cc1ccc(Cl)c(Cl)c1)O2,-7,-4
COc1ccc(S(=O)(=O)N(C)C[C@H]2OCCCC[C@H](C)Oc3ccc(NS(=O)(=O)c4ccc(Cl)cc4)cc3C(=O)N([C@H](C)CO)C[C@@H]2C)cc1,-27,-29

Pulled by compound from the entries so far (7):
SMILES,Vaccinia inh,Vaccinia inh Venus
Cc1noc(C)c1NC(=O)N(C)C[C@H]1Oc2c(NS(=O)(=O)c3ccc(Cl)cc3)cccc2C(=O)N([C@@H](C)CO)C[C@@H]1C,8,9
CCCNC(=O)N1C[C@@H]2[C@H](c3ccccc31)[C@H](CO)N2Cc1cccc(OC)c1,-1,-2
COc1ccc(CN(C)C[C@@H]2Oc3ccc(NS(C)(=O)=O)cc3CC(=O)N([C@@H](C)CO)C[C@H]2C)cc1,4,11
C[C@@H]1CN([C@@H](C)CO)C(=O)c2cccc(NC(=O)c3nc4ccccc4s3)c2O[C@H]1CN(C)C(=O)Nc1ccc2c(c1)OCO2,37,15
CO[C@@H]1CN(C)C(=O)c2ccc(NC(=O)c3ccc(-c4ccccc4)cc3)cc2OC[C@@H](C)NC[C@@H]1C,?,nt
N#C[C@H]1[C@@H](c2ccccc2C2=CCCCC2)[C@@H](CO)N1S(=O)(=O)c1ccccc1,15,12
COc1ccc(S(=O)(=O)N[C@H]2CC[C@@H](CCn3cc(C(C)C)nn3)O[C@@H]2CO)cc1,-11,-7

(listing goes on)
SMILES,Vaccinia inh,Vaccinia inh Venus
C[C@@H]1CN([C@H](C)CO)C(=O)Cc2cc(NC(=O)Nc3ccccc3)ccc2O[C@H]1CN(C)C(=O)NC1CCCCC1,1,4
COCC(=O)Nc1ccc2c(c1)OC[C@@H](C)N(Cc1ccccc1)C[C@@H](C)[C@@H](OC)CN(C)C2=O,-5,-11
C[C@H]1CN([C@@H](C)CO)C(=O)c2cc(NC(=O)Cn3cnnn3)ccc2O[C@H]1CN(C)Cc1ccncc1,-6,-11
O=C(C[C@H]1C[C@@H]2c3cc(NC(=O)C4CCC4)ccc3O[C@@H]2[C@H](CO)O1)NCc1ccccc1F,3,1
C[C@H](CO)N1C[C@H](C)[C@H](CN(C)S(=O)(=O)c2cccs2)Oc2ccc(NC(=O)Nc3ccc(F)cc3)cc2CC1=O,-13,-18
